Sa RN4220 lethal = growth inhibition of S. aureus RN4220, primary screen, OD600; 16 h; inhibition, % (no concentration beside the values); 330,000 compounds, 0.33% hits; AID 1259311, 2017;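 active = z-score of -3 or lower and OD600 up to 0.18 on both plates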;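 note: plate controls were untreated cells for no effect and reference antibiotic for full effect; stock transfer was 100 nL into about 80 µL; one replicate is shown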
Autofluor counter = compound fluorescence in toxin protease inhibitor counterscreen | compound autofluorescence counterscreen, microsphere flow cytometry; active compounds read high | fluorescence intensity (no concentration beside the values) | 360,000 compounds, 3.1% hits;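 active = at least 3 SD above the mean of all compounds, about 16000 in these data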;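 note: 100 nL of 1 mM stock went into each well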
ugtP null kill = growth inhibition of ugtP-null S. aureus, primary screen, RN4220 ugtP deletion, OD600. 16 h; some inactives read as strong as hits. growth inhibition, % (test concentration not listed). 330,000 compounds, 0.54% hits;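 active = z-score under -3 and OD600 up to 0.15 on both plates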;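 note: plate controls were untreated wells for no effect and antibiotic for full effect; wells of about 80 µL received 100 nL stock; the first replicate is given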
BJeLR lethal = MLPCN primary cell-based screen for lethality selective to Ras in HRASV12 cells | BJeLR (HRASV12) viability, CellTiter-Glo ATP luminescence, 48 h; reference of the scale not given here | inhibition, % (concentration not given with the values) | 300,000 compounds, 0.17% hits | AID 1554, 2009;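 active = replicate mean above 50%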;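 note: 50 nL library stock added to about 25 µL; numbers are from one replicate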
Mtb hypoxia rep = PubChem AID 1159583; fluorescence inhibition, % (test concentration not listed); M. tuberculosis hypoxia-regulated fluorescent reporter, fluorescence; 300,000 compounds, 0.1% hits;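 active = 35 to 45% if threefold the growth effect, above 45% if 1.5-fold the growth effect; inactive = the rest, general growth blockers included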;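 note: wells of about 50 µL received 100 nL stock; 0% = vehicle wells and 100% = reference inhibitor wells; whole bacteria with a GFP reporter of the hypoxia response; strong numbers were not always called active; many hits fall short of the cut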
PrP 5UTR inh = inhibition of PrP 5' UTR reporter expression | inhibition, % (no concentration beside the values) | cell-based PrP 5' UTR mRNA reporter, plate reader | 340,000 compounds, 0.35% hits;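 active = every replicate at 50% or more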;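 note: 0 = median of the neutral control wells; tested in H4 reporter cells; numbers are from one replicate; inactives centre near -14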
Mtb hypoxia rep growth = recorded beside Mtb hypoxia rep, whose call it bears; growth inhibition, %; measured here: M. tuberculosis growth (absorbance);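 0% = vehicle and 100% = reference antibiotic; read after six days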
Starred values were filed as active, the others as inactive; nt = no result given. This is a random part of the collection. Share with any hit: about 4.1%.

Structure	Mtb hypoxia rep growth	Sa RN4220 lethal	Autofluor counter	ugtP null kill	PrP 5UTR inh	BJeLR lethal	Mtb hypoxia rep
CCc1nn(C(C)C(=O)NCCc2ccccc2)c(=O)c2cc3occc3n12 (stereo unspecified)	-6.9	4.0	3891	8.8	-28.9	10.0	-4.1
CCCN(CC1CC1)S(=O)(=O)c1ccc(S(N)(=O)=O)cc1	nt	3.3	5510	1.1	-8.4	10.7	nt
O=c1c2ccccc2nnn1CSc1ncnc2ccccc12	nt	2.4	2540	-2.6	-10.9	-2.4	nt
COc1ccc(Cl)cc1NS(=O)(=O)c1c(C)[nH]c(C)c1C(=O)N1CCCCC1	-4.1	6.2	4677	-4.8	-10.3	9.9	0.2
CCc1ccc(N2CC(C(=O)OCC(=O)Nc3cc(C)on3)CC2=O)cc1 (stereo unspecified)	1.9	6.2	3233	9.8	-37.1	-5.0	5.6
O=C(COC(=O)CCCSc1nc2ccccc2[nH]1)NC(=O)NC1CCCC1	7.2	3.7	2318	-3.5	-10.5	-14.5	5.7
COc1ccc(CNC(=O)COC(=O)c2[nH]c(C)c(C(C)=O)c2C)cc1OC	-9.2	2.2	3051	3.9	-13.2	nt	4.6
NC(=O)[C@@H]1CCCNc2c(I)cc([N+](=O)[O-])cc2C(=O)N[C@@H](CO)C(=O)N[C@@H](Cc2ccc(O)cc2)C(=O)N1	nt	nt	4171	nt	-1.1	-2.1	nt
Cc1cc(C(c2cc(C)c(N)c(C)c2)c2ccco2)cc(C)c1N	-6.0	1.4	3264	1.6	-5.7	-12.8	-4.2
CCOC(=O)c1c(NC(=O)CSc2ccccc2C(=O)O)sc(C)c1C	3.3	-1.7	4500	15.8	-11.9	35.8	-13.9
O=C1CC(C(=O)N(c2ccc(F)cc2)C(C(=O)NC2CCCC2)c2ccccn2)CS1 (stereo unspecified)	6.4	-0.2	22756*	2.7	-25.8	-3.4	5.1
CC(C)(C)c1ccc2c(c1)OC(C(=O)NN=Cc1ccc(-c3cccc(C(=O)O)c3)o1)CO2 (stereo unspecified)	1.6	9.5	nt	14.1	nt	nt	12.4
Cc1cc(C)c2c(CC(=O)NN(C)C)coc2c1	3.4	2.6	3931	1.9	-37.6	4.5	-0.4
O=C(N/N=C/c1ccc(O)cc1)NC12CC3CC(CC(C3)C1)C2	nt	nt	3203	nt	-23.2	-11.4	nt
CC(=O)n1nc(-c2ccc(Cl)cc2)nc1NCc1ccco1	8.2	4.7	21596*	6.3	-69.7	1.7	10.5

Some of these compounds in order of length of the SMILES, smallest number first:
Structure	Mtb hypoxia rep growth	Sa RN4220 lethal	Autofluor counter	ugtP null kill	PrP 5UTR inh	BJeLR lethal	Mtb hypoxia rep
CCc1ccc(N2CC(C(=O)OCC(=O)Nc3cc(C)on3)CC2=O)cc1 (stereo unspecified)	1.9	6.2	3233	9.8	-37.1	-5.0	5.6
COc1ccc(Cl)cc1NS(=O)(=O)c1c(C)[nH]c(C)c1C(=O)N1CCCCC1	-4.1	6.2	4677	-4.8	-10.3	9.9	0.2
O=C1CC(C(=O)N(c2ccc(F)cc2)C(C(=O)NC2CCCC2)c2ccccn2)CS1 (stereo unspecified)	6.4	-0.2	22756*	2.7	-25.8	-3.4	5.1
NC(=O)[C@@H]1CCCNc2c(I)cc([N+](=O)[O-])cc2C(=O)N[C@@H](CO)C(=O)N[C@@H](Cc2ccc(O)cc2)C(=O)N1	nt	nt	4171	nt	-1.1	-2.1	nt

(further entries)
Structure	Mtb hypoxia rep growth	Sa RN4220 lethal	Autofluor counter	ugtP null kill	PrP 5UTR inh	BJeLR lethal	Mtb hypoxia rep
O=C(CN1C(=O)c2ccccc2S1(=O)=O)N1CCOCC1	12.6	2.7	20391*	0.4	-36.4	-3.3	2.4
Cc1ccc(/C=C/c2nc3ccccc3s2)s1	nt	-7.7	3298	41.5	50.2	-9.5	nt
CC(C)C[C@@H](CO)N1CCN(CCCc2ccccc2)CCC1=O	nt	nt	3514	nt	-17.6	14.0	nt
COC(=O)c1cccc(-c2ccc(C(c3c(C)[nH][nH]c3=O)c3c(C)[nH][nH]c3=O)o2)c1	10.6	-9.4	3519	-23.2	-6.5	0.9	-5.0
CCc1nnc(NS(=O)(=O)c2ccc(NC(=S)NC(=O)/C=C/c3ccccc3)cc2)s1	2.9	10.8	2199	2.6	-13.9	4.8	4.3
Cc1ccc(S(=O)(=O)NCC(C)NS(C)(=O)=O)cc1 (stereo unspecified)	13.2	6.2	17267*	-7.9	-56.4	-12.1	1.1
Cc1cc(C)n(C(=O)CNC(=O)Cc2ccccc2)n1	8.8	3.2	5114	4.0	-23.7	5.8	11.9
CC(C)c1c(C(=O)NN=Cc2ccncc2)nnn1-c1nonc1N	1.8	-0.2	nt	6.6	nt	nt	1.9
O=C1C(Cc2cccc([N+](=O)[O-])c2)S/C(=N/N=C/c2ccco2)N1c1ccccc1 (stereo unspecified)	nt	nt	2077	nt	-6.6	-4.5	nt
CC(=NNC(=O)c1cccc(S(=O)(=O)Nc2ccc(C)cc2C)c1)c1ccncc1	-2.5	7.7	nt	6.1	nt	nt	-4.9
O=c1c2c3c(sc2nc2n1CCCCC2)CCCC3	7.8	1.7	3955	14.1	-70.0	-3.4	10.0
COc1ccc(-n2cnc3cc(C(=O)NC4CCCC4)ccc32)cc1	0.6	5.7	2034	-2.7	-1.4	0.7	9.8
COc1cccc(CNC(=O)c2n[nH]c3ccccc23)c1	17.7	15.7	4465	28.0	-37.6	0.0	8.1
O=C(COc1ccccc1)N1CCN(CC(O)COc2ccccc2)CC1 (stereo unspecified)	8.6	2.2	4119	6.6	-23.6	-1.1	5.2
Cc1ccsc1C(=O)N1CCCC(CCC(=O)NCc2ccc(F)c(F)c2)C1 (stereo unspecified)	-10.2	3.3	4384	8.6	-16.3	11.0	2.9
Cc1cccn2c(=O)c3c(nc12)N1CCCCCC1C1(C3)C(=O)N(C)C(=O)N(C)C1=O (stereo unspecified)	4.5	-0.9	6088	5.5	nt	-2.0	13.7
CCC(C)NC(=O)C1c2ccccc2C(=O)N1Cc1ccccc1 (stereo unspecified)	9.4	6.6	3789	12.3	-3.1	-5.7	5.0
Cc1ccccc1C(=O)N1CCc2ccccc2C1	7.9	3.2	12240	-1.1	-12.2	1.1	8.3
Cc1ccc(C(=O)C(C)OC(=O)c2cc3cc([N+](=O)[O-])ccc3oc2=O)cc1 (stereo unspecified)	3.8	42.5	9146	-3.9	-17.9	-2.7	-6.5
O=c1[nH]c(=O)n(-c2ccc(Cl)cc2)c(O)c1C=Nc1ccc(S(=O)(=O)Nc2nccs2)cc1	nt	nt	10762	nt	-19.5	6.5	nt
COc1ccc(NS(=O)(=O)c2cn(C)cn2)cc1Cl	9.3	-1.2	6235	-1.0	13.3	-6.1	-5.0
CCCCn1c(O)c(N=NC(=O)c2ccncc2)c2cc(Br)ccc21	1.3	18.2	2628	-1.3	3.6	5.4	-17.6
CCCCc1[nH]c(=O)c(C#N)c2c1CCCC2	4.6	3.5	9802	3.7	-58.4	-6.3	-3.0
COc1ccccc1CNC(=O)C(=O)c1cn(CC(=O)N2CCOCC2)c2ccccc12	9.9	1.8	5683	-1.4	-10.5	7.8	-9.3
CCOc1ccc(CCNC(=O)c2[nH]c(C)c(C(C)=O)c2C)cc1OCC	-1.3	3.7	3222	1.5	-13.4	-1.3	-2.1
O=C(C1CC=CCC1)N1CCN(S(=O)(=O)c2ccc(F)cc2)CC1 (stereo unspecified)	0.0	-1.8	4100	-1.8	-12.1	nt	-2.0
C(=Cc1c[nH]c2ccccc12)c1nccc2ccccc12	19.5	-5.3	5277	-21.9	-41.4	nt	2.6
CCCN1C2CCCC1CC(NC(=O)c1ccccc1OC)C2 (stereo unspecified)	1.5	-0.4	3256	-1.9	8.4	-0.3	3.5
COc1ccccc1-c1cc(-c2cc(Cl)ccc2O)n[nH]1	8.1	-0.2	22763*	4.3	-21.6	6.3	1.4
CC(OC(=O)CCNS(=O)(=O)c1ccccc1)C(=O)Nc1ccc(S(=O)(=O)N2CCCCC2)cc1 (stereo unspecified)	3.4	-1.9	3933	-3.3	-17.6	nt	13.8
COc1ccc(C(C)=O)cc1COC(=O)CCNS(=O)(=O)c1ccc(C(C)=O)cc1	4.9	2.8	6599	-11.9	-5.6	-1.3	15.6
C[C@]12C(=O)N(c3ccc(Cl)cc3)C(=O)N1[C@@H]1c3ccccc3OC[C@@H]1[C@H]2c1ccccc1	nt	nt	5122	nt	-25.3	3.4	nt
Cc1cccc(Nc2nnc(SC/C(O)=C(\C#N)c3nc4ccccc4[nH]3)s2)c1C	3.8	2.6	10111	-11.9	-30.5	0.0	-1.4
CCCCCCOC(=O)C(C#N)c1nc2ccccc2nc1N1CCN(CC)CC1 (stereo unspecified)	20.7	5.9	3942	-22.1	8.9	-11.8	7.5
Cc1c(C(=O)NCC(C)C)sc2nc(-c3ccc(F)cc3)cn12	8.5	-6.1	5622	-19.4	-47.2	-1.7	8.5
Cc1noc(C)c1C(=O)Nc1ccccn1	-4.5	1.1	22789*	-0.8	-7.2	-3.7	-7.8
CCCN(Cc1cc2ccccc2[nH]c1=O)C(=O)c1cccc([N+](=O)[O-])c1	2.5	2.0	4438	7.2	-10.3	9.7	6.1
COc1ccc(CC(=O)NC(=S)Nc2ccc(S(=O)(=O)NC(C)(C)C)cc2)cc1	nt	2.5	4815	13.1	-14.0	2.1	nt
CC1(C)CC(=NNC(=O)c2n[nH]c3c2CCC3)CC(C)(C)N1	4.7	5.8	2077	-1.1	5.9	-9.4	5.2
Cc1ccc(C(=O)NCC(=O)OCC(=O)Nc2ccccc2C#N)s1	8.5	1.2	3847	5.7	-22.3	2.1	8.3
CCOc1ccc(S(=O)(=O)Nc2cc(F)ccc2F)c2cccnc12	-7.3	11.1	5994	1.5	-15.6	-18.4	-3.0
O=C(COC(=O)Cc1ccc(S(=O)(=O)N2CCOCC2)s1)NCc1ccccc1	1.4	18.9	2393	14.4	-5.8	9.0	10.3
Cc1ccc(CNS(=O)(=O)c2ccc(CN3C(=O)c4cccnc4C3=O)cc2)o1	-5.6	-0.4	5768	3.6	5.8	0.9	3.3
CC(C)(C)NC(=O)NC(=O)COC(=O)C1CC(=O)N(Cc2ccccc2)C1 (stereo unspecified)	nt	7.7	2255	11.6	-15.5	3.0	nt
O=C(N/N=C\c1ccc(O)c([N+](=O)[O-])c1)C1COc2ccccc2O1 (stereo unspecified)	nt	nt	6353	nt	-5.5	8.2	nt
CCOC(=O)c1sc(C)c(C(N)=O)c1NC1=NCCCCC1	2.4	6.9	9793	3.0	nt	-3.1	11.6
Cc1ccc(C2/C(=C(/O)c3ccc(Cl)cc3)C(=O)C(=O)N2CC2CCCO2)o1 (stereo unspecified)	nt	nt	2883	nt	0.6	5.6	nt
CCOC(=O)c1nc2c(=O)n(C)c(=O)n(C)c2n(C)c1=O	-5.0	1.0	4513	7.6	1.7	1.1	5.4
CCS(=O)(=O)N1Cc2ccccc2CC1C(=O)Nc1ccccc1OC (stereo unspecified)	9.4	4.3	3279	-2.9	-23.4	4.6	3.7

Source: PubChem (several laboratories)
